Screens deposited in PubChem BioAssay by ICCB-Longwood Screening Facility, Harvard Medical School.
HCMV UL50-53 inh: inhibitors of HCMV UL50-UL53 interaction, biochemical, HTRF; HCMV UL50-UL53 nuclear egress complex (human cytomegalovirus); normalized percent inhibition; inhibition, % (test concentration not listed); 0.15% of 190,000 active; AID 1918969, 2023;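 active = both replicates at 50% or more, plus weaker picks with an unusually low signal ratio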;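 note: stock transfer was 100 nL into about 20 µL; 0% = negative control wells and 100% = wells with untagged competitor protein; inactives centre near -12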
GIV-Gai inh: inhibitors of GIV peptide binding to Galpha-i3, primary screen, biochemical, fluorescence polarization, FITC-GIV GBA peptide, rat Galphai3; Guanine nucleotide-binding protein G(i) subunit alpha-3 (Rattus norvegicus), P08753; 90 min; stronger effect = lower value; scaled: aluminum fluoride 0%, vehicle 100%; percent of control (FP), % (concentration not given with the values); 0.42% of 210,000 active; AID 1224905, 2016;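 active = replicate mean at 85% of control or lower, very high polarization wells dropped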;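 note: wells of about 15 µL received 100 nL stock; the first replicate is given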
Target sequence (P08753 whole entry, looked up): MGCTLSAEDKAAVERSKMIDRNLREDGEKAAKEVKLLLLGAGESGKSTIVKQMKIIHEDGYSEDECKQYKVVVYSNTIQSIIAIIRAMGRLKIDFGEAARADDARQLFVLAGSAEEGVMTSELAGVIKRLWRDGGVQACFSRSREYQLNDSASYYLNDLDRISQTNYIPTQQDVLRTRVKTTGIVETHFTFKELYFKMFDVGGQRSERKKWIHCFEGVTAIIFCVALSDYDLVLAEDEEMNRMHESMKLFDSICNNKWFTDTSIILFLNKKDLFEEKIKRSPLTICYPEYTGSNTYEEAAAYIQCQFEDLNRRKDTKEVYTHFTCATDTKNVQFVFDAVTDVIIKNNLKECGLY
Sa growth 42C: S. aureus growth inhibition at 42 and 30 °C, primary screen, LtaS inhibitor project, RN4220, two temperatures; OD600, 20 h, 42 °C; stronger effect = lower value; relative growth, % (test concentration not listed); 0.53% of 170,000 active; AID 720641, 2013;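 active = growth at 42 °C up to 50% and 20 or more points under that at 30 °C, or under 10% at both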;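 note: 300 nL library stock went into each well; scaled to the means of positive and negative controls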
Sa growth 42C second temp: further read-out of Sa growth 42C, marked with its call; relative growth, %; measured here: growth at 30 °C;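 optical density after 20 h as mean of two plates; 100% = untreated growth and lower means inhibition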
Numbers without * were called inactive; x = not tested or not shown; & = joins results of further samples.

SMILES,HCMV UL50-53 inh,GIV-Gai inh,Sa growth 42C,Sa growth 42C second temp
Cc1sc2ncnc(SCC(=O)c3ccccc3)c2c1C,-6.2,x,102.4,82.1
COc1ccc(Cl)cc1NC(=O)NCC1CCN(C(=O)OC(C)(C)C)CC1,-11.1,112.1,102.0,100.8
CCOc1cc(/C=C2\SC(N)=NC2=O)ccc1OC(=O)c1ccc(C)cc1,-1.4,116.4,x,x
COCCN(Cc1ccccc1)S(=O)(=O)c1cccc(C#N)c1,26.0,x,89.0,92.4
O=C(Nc1cc(C(F)(F)F)cc(C(F)(F)F)c1)C(=S)N1CCCCC1,15.9,x,119.0,132.5
O=C(NCc1cccs1)c1ccc2ccccc2n1,-20.4,x,107.1,93.4
c1nnnn1CC1CCOCO1 (stereo unspecified),-3.1,99.2,113.7,99.9
Cc1nc2ccccn2c(=O)c1NC(=O)c1ccccc1Cl,x,101.2&97.8,110.8,104.2
CC(OC(=O)Cn1c(=O)oc2ccccc21)C(=O)N(C)Cc1cccc(F)c1 (stereo unspecified),-10.5,x,77.0,86.1
COc1cc(Cl)c(C)cc1NC(=O)CSc1cc(=O)n(C)c2cc(Cl)ccc12,1.5,101.3,105.5,95.5
C[N+]1(C)C2CC[C@H]1CC(OC(=O)C(O)c1ccccc1)C2 (stereo partly specified),-8.9,x,91.5,89.2
Cc1ccccc1C(=O)Nc1nnc(SCc2cc(=O)c3c(C)ccc(C)c3[nH]2)s1,x,105.8,103.6,98.3
COc1ccc(S(=O)(=O)N(C(=O)c2ccc(C)cc2)c2ccc3oc(=O)sc3c2)cc1,-20.0,99.1,x,x
Clc1ncnc2sccc12,-0.3,x,97.8,88.5
Cc1[nH]c2ccc(C(=O)NCCc3ccccc3Cl)cc2c1C,x,103.3,121.6,93.9
Cc1nc2sccn2c(=O)c1S(=O)(=O)NCc1cccnc1,-24.0,102.6,95.0,91.1
Cc1ccc(NS(=O)(=O)c2ccc3c(c2)n(C)c(=O)n3C)c(C)c1,-15.5,104.6,80.5,78.5
C=Cc1ccc(Cn2c(C(=O)O)c(CNCc3ccc(F)cc3)c3ccc(C)cc32)cc1,x,105.1,100.0,94.5
CCOC(=O)N1CCN(Cc2nc3cc(NC(C)=O)ccc3n2C(C)C)CC1,-5.5,98.5,98.2,87.5
OCCNCCNCc1ccc(-c2ccccc2F)o1,-1.4,100.8,x,x
Cc1cc(C)n2nc(CNc3cccc(Cl)c3)nc2n1,-20.4,104.1,x,x
CCO/C=C1\C(=O)N(c2ccc(C)cc2C)C(=O)c2cc(OC)ccc21,-34.8,x,137.6,82.9
CCOC(=O)c1cnn(C)c1NS(=O)(=O)c1ccc(Cl)cc1,-24.1,101.1,82.6,86.5
Cc1c(NC(=O)CN2C(=O)c3ccccc3C2=O)cccc1-c1nc2ccccc2s1,-1.5,101.2,x,x
Cc1noc(/C=C/NCc2cccnc2)c1S(=O)(=O)N(C)CC(=O)N1CCc2ccccc21,-15.7,101.7,109.6,91.6

Later entries.
SMILES,HCMV UL50-53 inh,GIV-Gai inh,Sa growth 42C,Sa growth 42C second temp
COc1ccc(-c2csc3nc(-c4ccccc4OC)oc(=O)c23)cc1,-20.8,104.5,x,x
CC1(C)CCCC2=C1CC1C(=O)N(CCC[N+](C)(C)C)C(=O)C1C2 (stereo unspecified),x,100.4,94.2,99.4
COC(=O)CNC(=O)Cc1c(F)cccc1Cl,-15.5,105.5,123.5,97.2
CC(C)(C)c1cc(C(=O)Oc2ccc(Cl)cc2)n(Cc2ccccc2)n1,-3.3,100.7,99.8,99.4
Cc1ccc(Nc2cc(=O)[nH]c(=O)[nH]2)cc1C,-8.5,105.3,8.5*,0.4*
CS(=O)(=O)Cc1ccccc1,-6.8,103.9,110.4,75.9
CC(C)c1ccc(NC(=O)CN2C(=O)C3(SCC(=O)N3c3ccc(F)cc3)c3ccccc32)cc1 (stereo unspecified),x,101.4,109.0,88.8
CCc1ccc(NC(=O)c2sc(C)nc2C)cc1,-2.7,107.8,x,x
COc1ccc2cc(C(=O)Nc3ccccc3)c(=Nc3ccc(C#N)cc3)oc2c1,-1.6,102.4,x,x
O=C(NCc1cccc(Cl)c1)c1ccc2c(c1)N(Cc1ccccc1)CCS2,-25.0,104.3,x,x
CCOc1ccc(C(=O)NN)cc1,-27.4,x,77.2,80.8
COc1ccc(C2c3c(n(C)c4ccccc34)C(=O)N2CC(=O)NCCC(C)C)cc1 (stereo unspecified),-0.1,112.2,x,x
CNC(=O)COc1ccc(C(=O)c2ccc(F)cc2)cc1,-16.6,x,98.5,88.2
Cc1ccsc1CCNC(=O)c1nnc(-c2oc3ccccc3c2C)o1,-20.0,103.7,x,x
Cc1nc(-c2ccccc2)sc1-c1ccc(SCC(=O)NCc2ccc(Cl)cc2)nn1,x,107.8,114.8,89.8
CNC(=O)N1CCc2cc(S(=O)(=O)Nc3ccc(Cl)cc3)ccc21,-10.7,105.1,x,x
Cc1oc(-c2ccc(Cl)cc2)nc1CN1CCC(C(=O)NCc2ccc3c(c2)OCO3)CC1,-0.9,100.9,124.0,101.7
O=C(NC1CC1)C1CC(=O)N(c2ccccc2)C1 (stereo unspecified),3.3,x,95.0,87.2
Nn1c(CCCc2nc3ccccc3c(=O)n2N)nc2ccccc2c1=O,x,110.3,82.9,87.9
O=C(Nc1cccnc1)C1CC(c2ccc(Cl)cc2)=NO1 (stereo unspecified),-39.4,101.4,76.1,75.0
N#Cc1c(N2CCCCC2)nc(N)c2c(N)nc(SCC(=O)O)cc12,67.5,x,44.9,0.9
CC(C)(C)OC(=O)N1CCC(c2c(C(=O)O)cnn2-c2ccc(F)cc2F)CC1,-13.9,102.5,104.3,88.0
Cc1nn(-c2ccccc2)c(OC(=O)c2ccccc2)c1S(=O)(=O)c1ccccc1,4.6,105.1,110.3,84.4
COc1ccc2c(c1)-c1nc(NC(=O)c3ccc(C)cc3)sc1CC2,-5.5,104.8,99.6,93.5
CC(C)NC(=O)Oc1ccccc1,-13.0,99.8,83.1,87.0

3 structures from above, sorted by number of heavy atoms, lowest first:
SMILES,HCMV UL50-53 inh,GIV-Gai inh,Sa growth 42C,Sa growth 42C second temp
CCc1ccc(NC(=O)c2sc(C)nc2C)cc1,-2.7,107.8,x,x
O=C(NCc1cccs1)c1ccc2ccccc2n1,-20.4,x,107.1,93.4
CNC(=O)COc1ccc(C(=O)c2ccc(F)cc2)cc1,-16.6,x,98.5,88.2

Next section
SMILES,HCMV UL50-53 inh,GIV-Gai inh,Sa growth 42C,Sa growth 42C second temp
Clc1cccc(N2CCN(c3c4c(nc5ccc(Cl)cc35)CCC4)CC2)c1,x,93.1,103.9,88.1
CCOC(=O)c1c(NC(=O)c2ccco2)sc2c1CCCC2=O,x,101.2,75.7,88.4
CCN1CCN(C(=O)N[C@@H](C(=O)N[C@@H]2C(=O)N3[C@@H]2SC(C)(C)[C@@H]3C(=O)O)c2ccccc2)C(=O)C1=O,-39.1&-23.5&-45.6,98.3,-0.5*,-0.7*
CC1(CSc2ccccc2C(=O)NCC2COc3ccccc3O2)NC(=O)NC1=O (stereo unspecified),-22.9,x,92.0,89.4
CCOC(=O)c1sc(COc2cccc(Cl)c2)nc1C,1.5,100.8,104.3,95.2
O=C(/C=C/c1ccco1)ON1C(=O)c2ccccc2C1=O,-52.0,92.7,90.2,68.8
Cc1ccc(N2C(=O)c3[nH]nc(-c4ccc(Cl)cc4)c3C2c2cccc(O)c2)cc1 (stereo unspecified),-26.0,100.8,x,x
CC(=O)Nc1c(C(=O)O)oc2ccc(Cl)cc12,-10.2,106.3,94.8,89.2
O=S1(=O)CCC(NC(=S)S)C1 (stereo unspecified),9.3,x,76.8,86.7
O=c1[nH]c(=S)[nH]c(C(F)(F)F)c1Cc1ccc(Cl)c(Cl)c1,-24.1,100.3,76.5,90.7
Cc1cccc(NCc2ccccc2O)c1,x,98.4,65.6,54.5
COc1cc2c(cc1OC)CN(Cc1nc3ccsc3c(=O)[nH]1)CC2,-32.0,x,92.6,96.1
S=C(NCCc1ccccc1)N1CCc2ccccc21,x,102.8,118.9,87.1
COc1ccc(CNC(=O)CSc2ncc3c(n2)-c2cc(Cl)ccc2N(C)S3(=O)=O)cc1,x,101.0,100.0,87.4
O=C(COC(=O)c1nn(CCO)c(=O)c2ccccc12)Nc1ccc(Cl)c(Cl)c1,12.5,x,114.6,97.5
O=C1c2nc3cc(-c4ccccc4)[nH]n3c(=O)c2CN1C1CCCCC1,-30.3,96.5,109.2,89.9
CC(C)(C)n1c(O)c(/C=C2\C=c3ccccc3=N2)c(=O)[nH]c1=O,-48.9,x,84.9,79.4
Cc1nc(N2CCN(c3ccccn3)CC2)c2c(C)c(C(=O)N3CCCC3)sc2n1,-12.7,104.8,x,x
CC1CCN(S(=O)(=O)c2ccc3c(c2)c(=O)c(C(=O)N2CCC(Cc4ccccc4)CC2)cn3C)CC1,-36.2,101.7,x,x
COc1cc(C(=O)NC(C)C(=O)NN)cc(OC)c1OC (stereo unspecified),-6.0,102.3,102.1,111.6
Cc1ccc(NC(=O)CSC2=Nc3ccccc3N=C(c3ccccn3)C2)c(Br)c1,-19.6,101.3,x,x
Cc1cccc(-c2nc3c4c(C)c(C)n(Cc5ccncc5)c4ncn3n2)c1,-16.7,103.9,x,x
O=C(O)CSCc1ccc(Br)cc1,3.8,x,71.6,97.3
O=C(Nc1ccc(Cl)cc1)Nc1nc(-c2ccccc2)cs1,x,98.7,96.1,74.0
COc1ccc(CCNC(=O)CCCn2c(=O)[nH]c3ccccc3c2=O)cc1OC,10.2,103.1,105.3,100.3

The list goes on.
SMILES,HCMV UL50-53 inh,GIV-Gai inh,Sa growth 42C,Sa growth 42C second temp
Cc1ccc2snc(C(=O)N3CCN(S(=O)(=O)c4ccc(F)cc4)CC3)c2c1,-20.8,102.7,x,x
CSc1cccc(NC(=O)C2CCN(c3nc4ccccc4[nH]3)CC2)c1,x,105.0,91.5,73.7
Cc1c(C(=O)NCCc2nc(-c3ccccc3)no2)oc2cc(Br)ccc12,-18.8,107.8,x,x
CCc1ccccc1NC(=O)CCCN1C(=O)CCn2nc(-c3cn(C)c4ccccc34)cc21,x,107.2,114.4,101.5
O=C(/C=C/c1ccco1)NNc1c(F)c(F)cc(F)c1F,-26.0,x,96.5,91.3
Cc1cccc(C(N)=S)c1,-43.0,x,98.1,96.2
Cc1[nH]c2ccccc2c1C(=O)COc1ccccc1,-1.8,x,139.1,91.4
CCOc1ccc(NC(=O)c2oc3ccccc3c2NC(=O)c2c(F)cccc2F)cc1,3.5,109.2,93.4,85.5
COc1ccccc1C(=O)NCc1ccc2c(c1)CCN2C(=O)c1cccc(C)c1,x,107.4,107.1,62.7
CCOc1cc(C2C(C(=O)Nc3ccccc3)=C(C)Nc3ncnn32)cc(Br)c1O (stereo unspecified),x,99.6,86.7,88.4
COc1ccc(C2=NN(C(=O)CCC(=O)O)C(c3ccccc3OC)C2)cc1 (stereo unspecified),-18.5,109.3,x,x
COc1ccc(C(=O)NCCn2cc(SCC(=O)NCCc3ccc(OC)c(OC)c3)c3ccccc32)cc1,14.5,99.1,82.3,84.3
C=Cc1ccc(Cn2cnc3onc(C)c3c2=O)cc1,-14.6,107.7,x,x
CCc1ccc(C(=O)Nc2cccnc2Oc2ccc(Cl)cc2)cc1,9.7,118.2,116.9,104.3
NC(=O)N/N=C/c1cccs1,-49.6,101.6,98.5,97.4
O=C(CCn1c(=O)c2ccccc2n(Cc2ccccc2)c1=O)NCc1ccc2c(c1)OCO2,x,110.3,89.5,98.2
COc1ccc(NC(=O)Nc2nnc(SCC(=O)Nc3cccc(C)c3C)s2)cc1,x,101.6&99.3,111.2,97.2
O=C(O)c1cscc1Sc1ccc(Cl)cc1,-12.9,96.2,87.9,91.0
O=C1CN(C(=O)/C=C/c2ccccc2)C(c2ccccc2)c2cc(Br)ccc2N1 (stereo unspecified),x,105.1,104.8,91.8
O=C(Nc1nccs1)c1ccccc1OCc1nc(-c2ccccc2)no1,-12.5,106.9,x,x
Cc1cc(O)c(CN2CCN(c3ccccc3)CC2)c2oc(=O)cc(C)c12,-15.7,101.0,91.6,87.2
CCOC(=O)N1CCC(NC(=O)CCc2c(C)nc3c(-c4ccc(F)cc4)c(C)nn3c2C)CC1,x,102.9,115.0,91.9
CCCCNC(=O)Nc1ccccc1Oc1ccccc1,-18.1,103.1,100.8,99.7
CCn1c(NCc2cccc(Cl)c2)nc2ccccc21,8.3,101.3,103.9,64.8
CCOC(=O)c1c(/N=C/c2nc(-c3ccco3)oc2O)sc2c1CCC2,-7.5,110.6,112.6,82.6
Cc1cc(F)ccc1S(=O)(=O)Nc1ccc(C(=O)N2CCCCCC2)cc1,1.3,x,92.6,107.5
c1csc(-c2nnc(COc3ccc4c(c3)OCO4)o2)c1,-4.5,x,95.1,85.9

Not a hit list (roughly 0.83% active in at least one column).
